Source: PubChem (ICCB-Longwood Screening Facility, Harvard Medical School)
Sa growth inh: S. aureus growth inhibition. S. aureus RN4220 growth, OD600, 20 h, 42 °C; hits give low values. relative growth, % (no concentration beside the values). actives 0.53% (n = 170,000);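 active = growth at 42 °C up to 50% and 20 or more points under that at 30 °C, or under 10% at both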;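 note: 300 nL library stock went into each well; scaled to the means of positive and negative controls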
GIV Gai3 FP: blocks GIV peptide binding to rat Galpha-i3. P08753. Galpha-i3/FITC-GIV peptide fluorescence polarization, 90 min; hits give low values; scaled: aluminum fluoride 0%, vehicle 100%. percent of control (FP), % (concentration not given with the values). actives 0.42% (n = 210,000). AID 1224905;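 active = replicate mean at 85% of control or lower, very high polarization wells dropped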;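 note: wells of about 15 µL received 100 nL stock; the first replicate is given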
Target sequence (P08753 whole entry, looked up): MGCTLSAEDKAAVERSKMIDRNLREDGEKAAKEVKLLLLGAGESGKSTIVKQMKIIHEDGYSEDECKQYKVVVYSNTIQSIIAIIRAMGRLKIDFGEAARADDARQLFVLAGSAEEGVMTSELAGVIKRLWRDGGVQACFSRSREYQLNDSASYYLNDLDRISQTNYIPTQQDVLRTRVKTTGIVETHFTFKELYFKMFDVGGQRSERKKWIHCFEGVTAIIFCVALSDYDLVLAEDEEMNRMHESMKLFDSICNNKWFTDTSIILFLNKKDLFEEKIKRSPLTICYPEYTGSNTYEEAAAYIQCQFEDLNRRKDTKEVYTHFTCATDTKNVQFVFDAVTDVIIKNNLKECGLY
HCMV NEC inh: disrupts HCMV UL50-UL53 complex binding; HTRF UL50-UL53 interaction, normalized percent inhibition; inhibition, % (test concentration not listed); actives 0.15% (n = 190,000); AID 1918969;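 active = both replicates at 50% or more, plus weaker picks with an unusually low signal ratio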;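 note: stock transfer was 100 nL into about 20 µL; 0% = negative control wells and 100% = wells with untagged competitor protein; inactives centre near -12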
Sa growth inh second temp: recorded beside Sa growth inh, whose call it bears; relative growth, %; measured here: growth at 30 °C;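 optical density after 20 h as mean of two plates; 100% = untreated growth and lower means inhibition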
Starred values were filed as active, the others as inactive; / = no result given; & = joins results of further samples.

SMILES	Sa growth inh	Sa growth inh second temp	GIV Gai3 FP	HCMV NEC inh
CC(OC(=O)C1CCCCC1)C(=O)Nc1ccc(Cl)cn1 (stereo not drawn)	65	88	/	-20
COc1cc(N2C(=O)CSC2c2ccccc2)c(OC)cc1Cl (stereo not drawn)	124	82	99	/
COc1ccc2c(c1)s/c(=N\NC(=S)NC(=O)CN1C(=O)CCC1=O)n2C	0.5*	0.1*	111	-2
O=C(CCc1nc(-c2ccc(Cl)cc2)no1)OCc1ccc(Br)cc1	102	83	108	-1
COc1cccc(Cn2cc(C(=O)c3ccccc3)c(=O)c3cc4c(cc32)OCO4)c1	86	90	98	-25
Nc1nc(CSCCO)nc(Nc2ccccc2)n1	90	91	107	-24
CN1CCCC(OC(=O)c2ccco2)C1 (stereo not drawn)	104	87	/	-4
O=C(c1cc(=O)c2cc(Cl)ccc2o1)N1CCN(CCc2ccncc2)CC1	/	/	105	-25
COc1ccc(S(=O)(=O)Nc2cc(-c3cn4ccccc4n3)ccc2C)cc1	93	92	103	11
O=C(O)CCCC(=O)N1CCN(c2ncccn2)CC1	96	86	100	-42
Cc1ccc(S(=O)(=O)Nc2ccc3c(c2)n(C)c(=O)n3C)c(C)c1	/	/	95	-6
CN(C(=O)CSc1ccc(Cl)cc1)c1ccccc1C(=O)NC1CCCCC1	106	87	110	14
CCc1ccc(NC(=O)C2=CC(c3ccc(C)cc3)=NS(=O)(=O)N2C)cc1	/	/	96	-25
COc1ccc(C)cc1NC(=O)c1sc2ncnc(N3CCCCC3C)c2c1C (stereo not drawn)	/	/	89	-11
N#Cc1c(NC(=O)c2cccnc2)sc2c1CCCC2	79&113	85&92	108	-21&-42
N#Cc1nc(N2CCCC2)nc(N(c2ccccc2)c2ccccc2)n1	93	85	/	-2
COc1ccc(C2(O)N=C(C(F)(F)F)NC(SC)=C2C#N)cc1 (stereo not drawn)	102	94	96	1
Cc1cc(C(=O)O)on1	100	82	99	8
COc1cc(C(=O)Nc2cccc(OCc3cc(=O)n4cc(C)sc4n3)c2)cc(OC)c1OC	99	94	102	-11
CCOC(=O)c1ccccc1NC(=O)CCOc1ccccc1	98	91	102	-12
NC(CSCc1cccc(Br)c1)C(=O)O (stereo not drawn)	92	91	102	-25
O=C(Nc1nccs1)C1CC1	105	92	/	-7
Cc1onc(-c2c(Cl)cccc2Cl)c1NC(=O)N1CCOCC1	105	100	111	0
CCCn1c(=N)c(C(=O)NCC2CCCO2)cc2c(=O)n3cc(C)ccc3nc21 (stereo not drawn)	99	103	114	-127
O=C(Nc1cccc(F)c1)C1CCCN(c2cnccn2)C1 (stereo not drawn)	86	80	99	-12
CCc1ccc(C2=CC(c3cccc(Br)c3)n3nnnc3N2)cc1 (stereo not drawn)	109	88	105	/
CCCc1cc(N2CCN(c3cc(Cl)ccc3C)CC2)n2cnnc2n1	103	91	103	11
Cc1c(Cl)cccc1-n1ncc(C(=O)N2CCOCC2)c1C1CCN(C(=O)OC(C)(C)C)CC1	85	90	103	/
CC(C)(CO)NC(=O)c1cccc(S(=O)(=O)N2CCOCC2)c1	88	82	98	-9
N#Cc1c(SCC(=O)NC2CC2)nsc1SCC(=O)NC1CC1	94	88	95	-2
CCN(CC)CCNc1nc(C)cc(C)n1	80	90	95	/
NC(=O)C1CCN(CN2C(=O)c3ccccc3C2=O)CC1	96	91	107	-28
Cc1ccc(NS(=O)(=O)c2c(C(C)C)cc(C(C)C)cc2C(C)C)cc1	109	95	97	/
COc1ccc(C(=O)Nc2cccc(C(=O)OCc3cc(=O)n4c5c(sc4n3)CCCC5)c2)cc1	75	90	103	/
O=C1CCCC(=O)C1C(c1ccccc1)C1C(=O)CCCC1=O	89	81	/	-32
COc1cc2c(cc1OC)C(C)N(C(=O)c1ccc(F)cc1)CC2 (stereo not drawn)	93	85	102	-3

Entries of single compounds as entered above. Order of values: Sa growth inh	Sa growth inh second temp	GIV Gai3 FP	HCMV NEC inh
Results for `CC(C)(CO)NC(=O)c1cccc(S(=O)(=O)N2CCOCC2)c1` → 88	82	98	-9
Results for `COc1cc2c(cc1OC)C(C)N(C(=O)c1ccc(F)cc1)CC2` (stereo not drawn) → 93	85	102	-3
Results for `CCc1ccc(C2=CC(c3cccc(Br)c3)n3nnnc3N2)cc1` (stereo not drawn) → 109	88	105	/

(list continues)
SMILES	Sa growth inh	Sa growth inh second temp	GIV Gai3 FP	HCMV NEC inh
COC(=O)c1ncn2c1C(=O)N(Cc1cccc(OC)c1)C(C)(C(=O)NC1CCCC1)C2 (stereo not drawn)	/	/	100	-22
Cc1cc(C(=O)CCC(=O)O)cc(C)c1O	100	96	109	7
C=CCNC(=O)c1cnc2scc(C)n2c1=O	/	/	111	-20
O=C(CCC(=O)c1ccc(Cl)cc1)Nc1c(F)cccc1F	95	82	/	0
CC(C)CC(=O)Nc1cccc(-c2cn3cccnc3n2)c1	105	88	103	/
COc1cc(C(=O)N2CCC(n3nnc4cc(F)ccc43)CC2)cc(OC)c1OC	99	77	102	-21
COC(=O)Cn1ncn2cccc2c1=O	107	87	104	-5
COc1ccc(C2=CC(c3cccc(OC)c3)n3ncc(C(=O)Nc4ccc(C)cc4)c3N2)cc1 (stereo not drawn)	/	/	108	2
COc1cc2c(=O)n(Cc3ccc(C(=O)NC4CC4)cc3)c(=O)n(CC(=O)NCCC(C)C)c2cc1OC	/	/	106	-14
Cn1c(/C(C#N)=c2/s/c(=C\c3ccsc3)c(=O)n2-c2ccccc2)nc2ccccc21	102	99	/	1
CCCCn1c(CNC(=O)c2ccccc2F)nnc1SCC(=O)OC	111	87	101	-8
O=S(=O)(Nc1ccc2c(c1)oc1ccccc12)N1CCCC1	123	103	/	-2

Some values from above.
In Sa growth inh second temp, `COc1cc(C(=O)N2CCC(n3nnc4cc(F)ccc43)CC2)cc(OC)c1OC` has 77
In Sa growth inh second temp, `CCc1ccc(C2=CC(c3cccc(Br)c3)n3nnnc3N2)cc1` (stereo not drawn) has 88

The results go on:
SMILES	Sa growth inh	Sa growth inh second temp	GIV Gai3 FP	HCMV NEC inh
O=C1CCCC/C1=C\N1CCOCC1	109	93	/	-25
COc1ccc(OC2C(=O)N(Cc3ccc(F)cc3)C2c2ccc(OC)c(OC)c2)cc1 (stereo not drawn)	125	75	99	/
O=C(OCCN1C(=O)c2ccccc2C1=O)c1cc(-c2ccco2)nc2ccccc12	64	54	/	-23
O=C(Cc1csc(NC(=O)Cc2ccccc2)n1)NO	80	80	100	-21
O=C(CCC(=O)N1CCSc2ccccc21)Nc1cccc(F)c1	104	82	107	-23
CC(=O)N1CCC(=NNc2ccnc3cc(Cl)ccc23)CC1	66	56	/	-25
CCCc1cc(=O)[nH]c2nnc(SCC(=O)Nc3ccccc3C(F)(F)F)n12	103	79	104	-26
COc1ccc(Cl)cc1NC(=O)c1nn(C)c2c1CS(=O)(=O)c1ccccc1-2	117	89	99	-8
CC(C)(C)S(=O)(=O)/C(C#N)=C/Nc1ncccn1	114	82	104	-4
c1cc(Oc2ncnc3sc4c(c23)CCCC4)cc(-n2cnnn2)c1	70	85	/	-21
Cc1cccc2c1SC1CCCCC1OC(=O)N2 (stereo not drawn)	103	105	106	18
N#Cc1c(-c2ccccc2)cc(-c2ccccc2)nc1SCC(O)CS(=O)(=O)Cc1ccccc1 (stereo not drawn)	103	83	102	-43

Reprinted at random: 2 entries already listed
SMILES	Sa growth inh	Sa growth inh second temp	GIV Gai3 FP	HCMV NEC inh
O=C(Cc1csc(NC(=O)Cc2ccccc2)n1)NO	80	80	100	-21
O=C(OCCN1C(=O)c2ccccc2C1=O)c1cc(-c2ccco2)nc2ccccc12	64	54	/	-23

Of the compounds above, 2 contain a CF3 group:
SMILES	Sa growth inh	Sa growth inh second temp	GIV Gai3 FP	HCMV NEC inh
COc1ccc(C2(O)N=C(C(F)(F)F)NC(SC)=C2C#N)cc1 (stereo not drawn)	102	94	96	1
CCCc1cc(=O)[nH]c2nnc(SCC(=O)Nc3ccccc3C(F)(F)F)n12	103	79	104	-26

Next structures
SMILES	Sa growth inh	Sa growth inh second temp	GIV Gai3 FP	HCMV NEC inh
Cn1c(=O)c2c(nc(NNC(=O)C(F)(F)F)n2C)n(C)c1=O	100	104	111	-26
Cc1c2cnn(-c3ccccc3)c(=O)c2c(C)n1CC(=O)NCc1ccc(Cl)cc1	106	81	104	-29
Cc1ccc2c(c1)N(CCCC(=O)Nc1ccccc1Cl)C(=O)CO2	/	/	104	-8
CCOC(=O)c1[nH]cnc1C(=O)NC1CCCCC1	98	73	102	-10
CCc1ccc(CNC(=O)C2CCCN2c2nnc(N3CCCC3=O)s2)cc1 (stereo not drawn)	101	89	100	-4
O=C(Nc1ccccc1C(=O)OCc1csc(Nc2ccccc2)n1)c1ccco1	136	98	/	-12
O=C(Cc1nc(=O)c2ccccc2s1)Nc1ccccc1	/	/	100	-18
S=c1n(CN2CCOCC2)nc2n1CCCCC2	97	83	/	-27
CCOC(=O)c1c(C)c(C(=O)N2CCC(C)CC2)c(C)n1C	/	/	104	-4
COC(=O)c1cc2c(ccn2-c2ccc(F)cc2)n1CC(=O)Nc1ccc(C)cc1	112	91	103	-1
CCCNC(=O)c1cc2c(Cl)ccc3c2n1CC(CC)O3 (stereo not drawn)	/	/	109	-18
CCc1ccc2ncc3c(-c4ccc(F)cc4)nn(CC(=O)NCc4ccccc4)c3c2c1	89	91	95	/
N#Cc1nccnc1N1CCN(Cc2ccccc2)CC1	101	94	100	-13
Cc1ccccc1-n1nc(C(=O)N2CCCC2)nc1-c1ccccc1	/	/	99	-14
CSc1ccc(C(=O)CCC(=O)O)cc1	101	97	/	-12
Cc1nnc(Nc2ccc(C(=O)NCCO)cc2)c2ccccc12	/	/	106	-62
COc1ccc(Br)cc1CNC(=O)c1cc2c(=O)[nH]c3ccccc3c2n1C	99	94	103	/
N=C1C(c2nc3ccccc3c(=O)[nH]2)=C(O)CN1c1ccc(O)cc1	/	/	120	11
CCOC(=O)c1cnc2ccc(C)cc2c1NCCc1ccc(OC)c(OC)c1	102	93	104	14
O=C(CC(NCc1ccccc1)C(=O)O)Nc1cccnc1 (stereo not drawn)	95	100	109	6
O=C(CC1(O)C(=O)Nc2ccc(Br)cc21)c1ccc(F)cc1 (stereo not drawn)	/	/	99	-20
Cc1onc(-c2ccccc2)c1C(=O)OCC(=O)N(C)Cc1cccs1	92	96	/	-16
Cc1ccsc1CCN1CSC2=C(C#N)C(c3ccc(Cl)cc3)CC(=O)N2C1 (stereo not drawn)	101	49	101	/
COc1ccc(NC(=O)Cn2c(-c3cscn3)nc3ccccc32)cc1	81	72	102	-9
C=CCNC(=O)/C=C/c1cccs1	77	91	/	-55
Cn1c(SCCN2CCCC2)nnc1C1CCN(C(=O)Cc2cccc(Cl)c2)CC1	100	97	97	-3
Nc1ccc(S(=O)(=O)NC2(C(F)(F)F)NC(=O)N(c3cccc(Cl)c3)C2=O)cc1 (stereo not drawn)	113	103	105	21
CC(C)N(C(C)C)S(=O)(=O)c1ccc(N2CCc3ccccc3C2)nc1	70	65	/	-25
COc1cccc(/C=N/n2cnc3sc4c(c3c2=O)CCCC4)c1	81	103	105	/
CCOC(=O)c1c(C)sc(-c2c(-c3ccc(OC)c(F)c3)[nH]c3c2c(=O)[nH]c(=O)n3C)c1O	91	83	319	3
O=C(O)CC(Cc1ccc(Cl)cc1)C(=O)Nc1ccccc1 (stereo not drawn)	121	87	/	-1
Cc1nc(N(C)CC(=O)N2CCOCC2)c2c(-c3ccccc3)csc2n1	89	96	/	-21
CCC1Sc2ccc(S(=O)(=O)CCC(=O)N3CCOCC3)cc2NC1=O (stereo not drawn)	97	91	100	5
COc1ccccc1S(=O)(=O)Nc1ccc2nc(SC)sc2c1	82	96	/	-5
Oc1c(C(Nc2cccc(Cl)c2)c2cccnc2)ccc2cccnc12 (stereo not drawn)	63	26	100	/
c1coc(-c2nc3nc4c(c(NCc5cccs5)n3n2)CCC4)c1	/	/	112	24
COc1ccc(NC(=O)NCc2noc3ccc(C)cc23)c(OC)c1	108	94	103	/
O=C(CCC(=O)c1ccc2c(c1)OCCO2)OCc1ncc(-c2ccccc2)o1	101	97	/	-4
CCOC(=O)c1c(NC(=O)CN2C(=O)S/C(=C/c3ccc(F)cc3)C2=O)sc2c1CCCC2	115	105	/	-4
COc1ccccc1OCC(=O)NCC1CCCCC1	99	96	/	-3
Cc1ccc(OCc2nc(C)c(C(=O)Nc3nnc(C(C)C)s3)s2)cc1C	/	/	107	-28
CCc1ccccc1S(=O)(=O)Cc1ccc(C(=O)NCCc2ccc(Cl)cc2)o1	81	66	105	-21
COc1ccccc1C(=O)NCC1(N2CCN(C)CC2)CCCCC1	105	90	102	0
Cc1nnc(NC(C)C)s1	99	86	102	-26
Cc1ccc(CNS(=O)(=O)c2ccc(N3CCCCS3(=O)=O)cc2)cc1	101	87	105	/
CC1CCc2nc(NC(=O)COc3ccc(C(C)(C)C)cc3)sc2C1 (stereo not drawn)	93	91	102	-11
COc1c(F)c(F)c(OC)c(F)c1F	107	89	97	-2
Clc1ccc(SCc2csc(-c3ccno3)n2)cc1	82	52	107	-26
Cc1ccc(NNC(=S)NC(C)C)c(C)c1	84	91	/	-4
Brc1cccc2c1CCN(CCc1ccccc1)C2	/	/	100	-9
Cc1cc(C)c2nc(NC(=O)c3ccc(S(=O)(=O)N4CCC(C)CC4)cc3)sc2c1	97	87	99	/
COc1ccc(CNc2nc(-c3cccnc3)nn2S(C)(=O)=O)cc1	115	85	105&104	15
